# Assay outcomes deposited in PubChem by National Center for Advancing Translational Sciences (NCATS).
# AmpC inh no det: Promiscuous and Specific Inhibitors of AmpC Beta-Lactamase (assay without detergent); P00811; AmpC nitrocefin hydrolysis, absorbance 480 nm, no detergent; potencies from a single point are estimates; Potency, µM (highest dose often 28.7 µM), for inactives: at the highest dose activity change, negative = inhibition; 71,000 tested, 1.8% active; AID 585, 2007; active = falling curve, for most hits resting on a single point; inconclusive = weak or doubtful change; inactive = flat or rising curve; further: % of control where 0% means no effect; about half of the hits show no inhibition at the top dose; a quarter of the inactives give rising signals
# Target sequence (P00811 whole entry, looked up): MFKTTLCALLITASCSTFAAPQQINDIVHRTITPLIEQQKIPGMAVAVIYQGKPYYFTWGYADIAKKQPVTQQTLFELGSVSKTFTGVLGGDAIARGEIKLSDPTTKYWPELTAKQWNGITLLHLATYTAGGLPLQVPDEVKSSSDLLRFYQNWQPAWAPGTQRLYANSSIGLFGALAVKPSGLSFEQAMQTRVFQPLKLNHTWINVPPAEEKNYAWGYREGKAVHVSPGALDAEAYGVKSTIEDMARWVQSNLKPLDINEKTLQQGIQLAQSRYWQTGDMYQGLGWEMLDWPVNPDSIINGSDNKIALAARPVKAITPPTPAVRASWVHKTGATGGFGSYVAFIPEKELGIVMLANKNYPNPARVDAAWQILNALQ
#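 AmpC in 20 mM phosphate buffer pH 7.0 was preincubated 15 min at room temperature with compounds. Nitrocefin (800 uM stock) was then added and hydrolysis followed at 480 nm every 20 s for 4 min.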
# * = called active by the depositor; u = inconclusive; & = joins results of further samples; [ ] = dose if it differs, or a comment. Potency means the concentration at half of the fitted maximal effect.
compound | AmpC inh no det
COC(=O)C1CCN(C(c2cc(OC)c(OC)c(OC)c2)c2sc3nc(C)nn3c2O)CC1 (stereo not drawn) | 10.4%
O=C(Nc1ccccc1)N1CC[C@@]2(CCCN(C(=O)c3cc(C(F)(F)F)cc(C(F)(F)F)c3)C2)C1 | 75.3%
COc1ccccc1N1CCN(C(=O)CSc2nnc(-c3ccoc3C)o2)CC1 | 87.3%
O=C(c1cnn(-c2nc3ccccc3s2)c1)c1ccccc1O | -20.1%
O=C(NC[C@@H]1CCCCN1)c1cc(OCC(F)(F)F)ccc1OCC(F)(F)F | -1.3%[12.8 µM]
COc1cccc(Nc2ncc3nc(C)c(=O)n(C4CC4)c3n2)c1 | 39.8%
Cc1cccc2c(=O)c(C(=O)N3CCCCCC3)c[nH]c12 | -11.8%
CCCSc1nc(N)c2c3c(sc2n1)CN(C)CC3 | 5.0%
O=C(NCCN1CCCCCC1)C1CCC(CNS(=O)(=O)c2cccc3cccnc23)CC1 (stereo not drawn) | 85.6%
COC(=O)[C@@]1(Cc2ccccc2)[C@H]2c3cc(C(=O)N(C)C)[nH]c3C[C@H]2CN1C(=O)c1ccccc1 | 176.9%
Cc1ccc(OCCSc2cc(C)nc(N)n2)cc1 | 30.4%
O=C(COC(=O)C1CCN(S(=O)(=O)c2cccs2)CC1)c1ccc2c(c1)OCCO2 | -17.3%
Cc1sc2nc(N)sc2c1C | -8.4%
O=C(NC1CCS(=O)(=O)C1)c1ccccc1C(=O)c1ccccc1 (stereo not drawn) | 6.2%
O=C(NCc1ccc2c(c1)OCO2)C1CCN(S(=O)(=O)c2cccc3nsnc23)CC1 | -8.6%
O=S(=O)(c1ccc(C2=CSC3=NCCN23)cc1)N1CCOCC1 | 1.6%
Cc1cccc(NC(=O)CS(=O)(=O)c2cn(C)c3ccccc23)c1C | 6.4%
O=C(O)CS(=O)c1ccc2c3c(cccc13)C(=O)c1ccccc1-2 (stereo not drawn) | -7.9%[5.75 µM]
O=C1c2ccccc2OCOc2ccccc21 | -4.3%
Cc1[nH]c2ccccc2c1/C=N/n1cnnc1 | 1.0%

# Quoted at random: 4 entries already listed
compound | AmpC inh no det
COc1cccc(Nc2ncc3nc(C)c(=O)n(C4CC4)c3n2)c1 | 39.8%
COC(=O)C1CCN(C(c2cc(OC)c(OC)c(OC)c2)c2sc3nc(C)nn3c2O)CC1 (stereo not drawn) | 10.4%
O=C(NC1CCS(=O)(=O)C1)c1ccccc1C(=O)c1ccccc1 (stereo not drawn) | 6.2%
Cc1cccc(NC(=O)CS(=O)(=O)c2cn(C)c3ccccc23)c1C | 6.4%

# Later entries:
compound | AmpC inh no det
COc1cc2c(cc1NC(=O)c1ccco1)CCCC2 | 4.7%
COc1cc(/C=C(\C#N)C(=O)c2ccc(O)c(O)c2)cc(I)c1O | -21.6%
Cc1ccc(-c2cc(C(=O)NCc3ccccn3)no2)cc1 | 8.5%
CC(=O)NC(Cc1ccccc1)C(=O)N1CCN(C(=O)c2ccco2)CC1 (stereo not drawn) | -1.1%
COCCn1c(=O)c(CCc2ccccc2)nc2cnc(N(C)C)nc21 | 81.5%
CCOC(=O)C(C)(C)C(=O)C(C)(C)C(O)c1ccccn1 (stereo not drawn) | 8.9%
CC1=C(C(=O)Nc2ccccc2)C(c2ccc(N(C)C)cc2)NC(=O)N1 (stereo not drawn) | 1.7%
CCN(CC)S(=O)(=O)c1ccc2oc(SCC3CN=C(c4ccc(OC)cc4)S3)nc2c1 (stereo not drawn) | 3.8%
CN(C)c1ccc(/C=[N+](\[O-])C2SC(=S)N(C)C2(C)C)cc1 (stereo not drawn) | -7.4%
Cc1ccc(C)n1C(Cc1ccccc1)C(=O)O (stereo not drawn) | u
Cc1cccc(-n2c(N)cc(=O)nc2SCC(=O)Nc2ccccc2)c1 | 8.1%
Cc1noc(C)c1C(=O)N1CCC2(CCCN(Cc3nccs3)C2)CC1 | 28.5%
CN(CC(=O)N1CCCCC1)S(=O)(=O)c1cccc2cccnc12 | 11.3%
O=C1OCCC1Sc1ncnc2sccc12 (stereo not drawn) | -4.5%
O=C(CSc1ccc2nnc(-c3ccccn3)n2n1)N1CCOCC1 | -9.0%
Cn1c(=O)c2c(nc(Cc3ccccc3)n2CC(=O)O)n(C)c1=O | 8.0%[5.75 µM]
O=C(CN1CCN(S(=O)(=O)c2ccccc2)CC1)Nc1ccc2c(c1)OCO2 | 23.5%
Cc1ccc(O)c(N=CC2=C(O)c3ccccc3C2=O)c1 | -4.9%
COCCNC(=O)COc1ccc(OCCNC[C@@H](O)COc2ccccc2)cc1 | 27.2%
CCn1c(=O)cc(OCC(=O)NCCCN2CCN(c3cccc(Cl)c3)CC2)c2ccccc21 | 158.9%
CCOC(=O)C1CCCN(CC(O)COc2ccc(OC)cc2C(C)(C)C)C1 (stereo not drawn) | 79.4%
COC(=O)C1(C(F)(F)F)N=C(N(C)C)OC(N(C)C)=N1 | -9.4%
CC(C)n1c2ccccc2c2nnc(SCC(=O)OCN3C(=O)c4ccccc4C3=O)nc21 | 10.8%
NC(=O)C1CCN(C(=O)c2ccc(CS(=O)(=O)c3c(Cl)cccc3Cl)o2)CC1 | 5.1%
CCn1c(SCc2nc3cc(OC)c(OC)cc3c(=O)[nH]2)nnc1-c1ccncc1 | 6.8%
CCCNC(=O)Cc1ccsc1 | -5.9%
COCCNC(=O)CSc1ccc(C)cc1 | 1.9%
C=CCn1c(SCc2cc(C(=O)OC)c(C)o2)nnc1-c1ccncc1 | 46.1%
CC(C)C(=O)Cc1ccc2ccccc2n1 | 4.4%[5.75 µM]
Cn1c(=O)c2c(nc(CN3CCN(c4ccccc4)CC3)n2CCCc2ccccc2)n(C)c1=O | 146.6%
CCOc1cc(C(=O)Nc2ccc(S(=O)(=O)Nc3cc(C)on3)cc2)cc(OCC)c1OCC | -22.6%
Cc1[nH]nc2c1C1(CCOC1C)C(C#N)=C(N)O2 (stereo not drawn) | -4.4%
Cc1c(NC(=O)c2ccc(COc3ccc4ccccc4c3)o2)c(=O)n(-c2ccccc2)n1C | 103.3%
COc1ccccc1NC(=O)Cn1nnc(-c2ccccc2NC(=O)c2ccco2)n1 | -21.1%
CCOc1cccc(-c2nn3c(-c4cc(C)[nH]n4)nnc3s2)c1 | 45.0%
O=C(O)CCC(=O)N1CCN(c2ccccn2)CC1 | u
CC(C)c1nnc(NC(=O)CCC(=O)NCc2ccc3c(c2)OCO3)s1 | 16.5%
O=C(NC1=NCCS1)c1cccs1 | -2.8%
CC(=O)C1=C(O)CCC1=N | -4.4%
Cc1ccc(S(=O)(=O)N(CCO)c2cc3c(s2)CCCC3)cc1 | 11.5%
COC(=O)Cn1c2ccc(F)cc2c2nc(C)sc21 | -1.9%
O=C(CN1CCC(NC(=O)c2ccccc2)CC1)NCc1ccccc1F | 9.7%
COc1ccc(C(=O)COC(=O)c2ccco2)cc1 | -3.4%
CCC(=O)Nc1cnc(NC(=O)c2cccc(F)c2)cc1C | -4.5%
CCOc1ccc(NC2c3ccccc3C(=O)N2c2ccc(Cl)cn2)cc1 (stereo not drawn) | -7.2%
O=C(NC1(C(F)(F)F)N=C2SCCN2C1=O)C1CCCCC1 (stereo not drawn) | -6.6%
COc1ccc(S(=O)(=O)NCC(c2cccnc2)N2CCN(c3ccccc3)CC2)cc1C (stereo not drawn) | 63.5%
CCCCCn1c(SCCN2CCOCC2)nc2c1c(=O)[nH]c(=O)n2C | 31.0%
CC(C)OC(=O)CCc1nc2ccccc2[nH]c1=O | -10.8%
Cc1onc(-c2ccccc2Cl)c1C(=O)OCN1C(=O)c2ccccc2C1=O | 30.5%
CC(C)CN1CC[C@@]2(CCCN(C(=O)c3csnn3)C2)C1 | 78.3%
COC(=O)c1ccccc1NC(=O)C1CC(c2ccc(F)cc2)=NO1 (stereo not drawn) | 37.1%
CCCC(=O)Nc1ncnc2c1ncn2[C@@H]1O[C@@H]2COP(=O)(O)O[C@H]2[C@H]1OC(=O)CCC | 7.5%
COc1ccccc1C(=O)Nc1ccccc1C(=O)N1CCCC1 | 4.5%
Cc1cc(NC(=O)CSc2ncnc3sc4c(c23)CCC(C)C4)no1 (stereo not drawn) | 5.01µM*
CN1CCN(C(=O)O[C@@H]2c3nccnc3C(=O)N2c2ccc(Cl)cn2)CC1 | 51.1%&-1.7%
C=CCn1c(Cc2cccs2)nnc1SCC(=O)Nc1ccc(C(=O)OCC)cc1 | 20.5%
O=C(Cn1cc2c(n1)CCCC2)Nc1ccccc1Cl | 3.0%
CCSc1nnc(NC(=O)c2cc(C)oc2C)s1 | -19.2%
Cc1c(C(=O)NCc2cccs2)oc2ccccc12 | 1.4%

# (listing goes on)
compound | AmpC inh no det
CCCn1c(-c2cccs2)nc2ccccc21 | 16.5%
CCOc1ccccc1COC(=O)c1cccc(-n2cnnn2)c1 | 26.0%
O=C(COc1ccccc1)NCC(c1cccs1)N1CCOCC1 (stereo not drawn) | 19.0%
C=CCNC(=O)CCCc1ccccc1 | -19.3%
O=C(CCCCCn1c(=O)[nH]c2ccsc2c1=O)NCc1cccs1 | -1.5%
COc1ccc(N2C(=O)C3CCCN3C2c2ccc(C)cc2)cc1 (stereo not drawn) | 32.1%
NC(=O)c1nsc(C(=O)N(CCc2ccccc2)C(C(=O)NC2CCCC2)c2ccco2)c1N (stereo not drawn) | 54.9%
O=C(Nc1ccc(NC(=O)C2CCCCC2)cn1)c1ccco1 | -7.1%
Cc1ccc(Cn2ccc(NC(=O)c3noc4c3CCCC4)n2)cc1 | 3.5%
CCc1nnc(SCc2ccc(C(=O)OC)o2)n1N | 6.6%
COCCCn1c(C2CCCCC2)nc2oc3cc(OC)ccc3c(=O)c2c1=O | 59.0%
CC1COC(c2cccn2Cc2ccccc2Cl)=N1 (stereo not drawn) | 9.3%
CCC(C)NC(=O)C1CCN(S(=O)(=O)c2cccnc2)CC1 (stereo not drawn) | 3.5%
Cc1ccc(C)c(N2CCN(C(=O)CCNC(=O)Cn3ccc4ccccc4c3=O)CC2)c1 | 130.2%
Fc1cccc2sc(Nc3nnc(-c4ccco4)o3)nc12 | u
CCCCOc1ccccc1Cn1c(=O)oc2ccc(C)cc21 | -11.0%
CCOC(=O)N1CCC(NC(=O)c2cc(-c3ccc(F)cc3)[nH]c2C)CC1 | 69.7%
Cc1ccc(S(=O)(=O)NC2(C(F)(F)F)C(=O)Nc3c2c(=O)n(C)c(=O)n3C)cc1 (stereo not drawn) | -3.9%
COc1ccccc1S(=O)(=O)Cc1ccc(C(=O)NC2CCCCC2)o1 | 11.7%
CC1(C)CC(=O)C=C(NCc2ccco2)C1 | -9.3%
Cc1ccc(-n2c(O)c(C=Nc3ccccc3N)c(=O)[nH]c2=O)cc1C | 22.9%
CC(=O)Nc1nc2c(ncn2COCCOC(C)=O)c(=O)[nH]1 | 12.6%
Cc1ccc2c(c1)N(CCC(=O)NCc1ccccn1)C(=O)CO2 | -1.1%
N#Cc1c2c(c(NCCCN3CCOCC3)n3c1nc1ccccc13)CCC2 | 120.6%
Cc1cc(NCCN2CCOCC2)n2nc(C)c(-c3ccc(Cl)cc3)c2n1 | 145.3%
O=C(c1cn(-c2ccccc2)nc1-c1ccc(Cl)s1)N1CCOCC1 | 120.6%
COc1ccc(N2C(=O)CCC(C(=O)N3CCCCC3)C2c2ccc(OC)c(OC)c2)cc1 (stereo not drawn) | 22.0%
COc1ccc(-n2c(=O)cc(N3CCN(Cc4ccccc4)CC3)[nH]c2=O)cc1 | 25.2%
CCOc1nc(OCC)nc(-n2cc(-c3ccccc3)nn2)n1 | 38.8%
O=C(Nc1ccc2c(c1)OCCO2)C1CCCN(S(=O)(=O)c2cccs2)C1 (stereo not drawn) | -8.6%
Cc1ccc(S(=O)(=O)Nc2cc(=O)[nH]c3c2CCC3)cc1 | -7.3%[5.75 µM]
Cc1nnc(NC(=O)c2ccc(S(=O)(=O)N3CCCCCC3)cc2)o1 | -4.7%
CN(C)CCC(=O)c1ccc(Cl)cc1 | -5.0%
CCN1CCN(C(=O)Cn2ncc3c2-c2ccccc2OC3)CC1 | 0.1%
C=C(C)c1cccc(C(C)(C)NC(=O)N2CCN(c3ncccn3)CC2)c1 | 40.5%
Cn1c(C(=O)N2CCCC(C(=O)NCCN3CCOCC3)C2)cc2sccc21 (stereo not drawn) | 18.9%
O=C(Cn1c(C(=O)N2CCc3ccccc3C2)cc2sccc21)c1ccccc1 | 15.8µM*[single pt active]
Cc1cc(CNC(=O)c2cc(Br)ccc2Cl)nn1C | 0.0%
Cc1nnc(NC2CCCCC2)[nH]c1=O | -7.3%
N#CC1=C(N)Oc2c(oc(CO)cc2=O)C1c1ccsc1 (stereo not drawn) | -8.6%
O=C1c2cccnc2C(Nc2ccc(S(=O)(=O)N3CCCCCC3)cc2)N1Cc1ccccc1 (stereo not drawn) | 101.6%
c1cncc(CSc2ncnc3nc[nH]c23)c1 | -0.7%[5.75 µM]
O=C(NCCN1C(=O)C2C3C=CC(C3)C2C1=O)Nc1ccccc1O (stereo not drawn) | 3.98µM*[single pt active]
O=C(COc1ccc(S(=O)(=O)N2CCc3ccccc32)cc1Cl)NCc1ccccn1 | 98.4%
Cc1ccc(S(=O)(=O)N2CCOCC(=O)NCCOCCNC(=O)COCC2)cc1 | 30.1%
Cc1onc(-c2ccccc2)c1C(N)=O | -6.9%
Cc1ccc(-n2c(C)cc(C(=O)OCC(=O)N(C)C3CCS(=O)(=O)C3)c2C)cc1 (stereo not drawn) | 96.2%
CC(C)C(c1nnnn1Cc1ccc(F)cc1)N1CCN(Cc2ccc3c(c2)OCO3)CC1 (stereo not drawn) | 59.4%
O=C(Oc1ccc(Cl)c2cccnc12)N1CCCCC1 | 24.7%

# Not all compounds are listed. The share of hits here may be higher or lower than overall.
